Screening results from PubChem.
A1 apoptosis 2 – blocks A1, raising caspase activity; MEF A1-2A-BIM cells, caspase-Glo luminescence, 3 h; percent of clofoctol response, DMSO zero; caspase activation, % (test concentration not listed); 24,000 tested, under 10 active; in the data active = caspase activation above about 5.9%;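 also: wells of about 30 µL received 50 nL stock; the first replicate is given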
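Test system – A1-2A-BIM-expressing MEF cells · Input – 2500 cells/well · Medium – RPMI-1640 growth medium with 10% FBS · Compound dosing – 50 nL pinned compound · Timing – 3 h compound exposure at 37 °C · Technique – Caspase-Glo luminescence (DEVD substrate) · Evaluation – Caspase-3/7 activity from luminescence increase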
* hit, by the source's call.

SMILES	A1 apoptosis 2
Cc1noc(C)c1NC(=O)N(C)C[C@@H]1Oc2c(NC(=O)c3ccc(-c4nccs4)cc3)cccc2C(=O)N([C@@H](C)CO)C[C@@H]1C	1.0
C[C@H]1CN([C@@H](C)CO)C(=O)c2cccc(NC(=O)C3CCOCC3)c2O[C@@H]1CN(C)S(=O)(=O)c1cn(C)cn1	0.5
C[C@@H]1CCCCO[C@@H](CN(C)C(=O)C2CCCCC2)[C@@H](C)CN([C@H](C)CO)C(=O)c2cc(NS(=O)(=O)c3ccccc3)ccc2O1	1.0
Cc1cc(C(=O)Nc2cccc3c2O[C@@H](CN(C)C(=O)Nc2cccc4ccccc24)[C@@H](C)CN([C@@H](C)CO)C3=O)n(C)n1	1.8
C[C@H]1CN([C@@H](C)CO)C(=O)c2cc(NC(=O)CCCN(C)C)ccc2O[C@@H]1CN(C)C(=O)Nc1ccc2c(c1)OCO2	-0.4
C[C@@H]1CN([C@H](C)CO)C(=O)c2cccc(NC(=O)Nc3ccc(C(F)(F)F)cc3)c2O[C@@H]1CN(C)Cc1ccncc1	0.6
C[C@H]1CCCCO[C@H](CN(C)S(=O)(=O)c2ccc(Cl)cc2)[C@@H](C)CN([C@@H](C)CO)C(=O)c2cc(NS(=O)(=O)c3ccc(Cl)cc3)ccc2O1	-0.8
C[C@@H]1CN([C@H](C)CO)C(=O)CCCn2nncc2CO[C@H]1CN(C)S(=O)(=O)c1ccc(-n2cccn2)cc1	-0.7
COc1ccc(NC(=O)N(C)C[C@@H]2OCCCC[C@@H](C)Oc3ccc(NS(=O)(=O)c4ccccc4)cc3C(=O)N([C@H](C)CO)C[C@@H]2C)cc1	0.9
Cc1noc(C)c1NC(=O)N(C)C[C@@H]1Oc2c(NS(=O)(=O)c3ccc(Cl)cc3)cccc2C(=O)N([C@H](C)CO)C[C@H]1C	0.2
COc1ccc(NC(=O)Nc2ccc3c(c2)CC(=O)N([C@H](C)CO)C[C@H](C)[C@@H](CN(C)S(=O)(=O)c2cn(C)cn2)O3)cc1	-1.6
CC(C)NC(=O)N(C)C[C@@H]1OCCCC[C@H](C)Oc2ccc(NC(=O)Nc3cccc4ccccc34)cc2C(=O)N([C@@H](C)CO)C[C@H]1C	-1.0
C[C@@H]1CN([C@H](C)CO)C(=O)c2cc(NS(=O)(=O)c3ccc(Cl)cc3)ccc2O[C@@H](C)CCCCO[C@H]1CN(C)Cc1ccccc1	-1.2
Cc1cc(C(=O)Nc2cccc3c2O[C@H](CN(C)CC2CC2)[C@H](C)CN([C@@H](C)CO)C3=O)n(C)n1	0.1
Cc1cc(C(=O)Nc2cccc3c2O[C@@H](CN(C)S(=O)(=O)c2ccc(Cl)cc2)[C@@H](C)CN([C@H](C)CO)C3=O)n(C)n1	-0.2
C[C@@H]1CCCCO[C@@H](CN(C)S(=O)(=O)c2cccs2)[C@@H](C)CN([C@H](C)CO)C(=O)c2cc(NS(=O)(=O)c3cccs3)ccc2O1	0.8
COc1ccc(NC(=O)N(C)C[C@@H]2OCCCC[C@@H](C)Oc3ccc(NC(=O)Nc4cccc5ccccc45)cc3C(=O)N([C@H](C)CO)C[C@@H]2C)cc1	0.0
C[C@@H]1CN([C@H](C)CO)C(=O)c2cc(NC(=O)C3CCCCC3)ccc2O[C@@H]1CN(C)Cc1ccccc1	-0.6
Cc1ccc(S(=O)(=O)Nc2ccc3c(c2)CC(=O)N([C@H](C)CO)C[C@H](C)[C@@H](CN(C)C(=O)Nc2cccc4ccccc24)O3)cc1	-0.2
CC(C)NC(=O)Nc1cccc2c1O[C@@H](CN(C)Cc1ccccc1)[C@H](C)CN([C@@H](C)CO)C2=O	1.5
O=C(/C=C/c1ccc(OCCCc2ccccc2)cc1)NO	-0.3
COc1ccc(NC(=O)Nc2ccc3c(c2)C(=O)N([C@H](C)CO)C[C@H](C)[C@H](CN(C)C(=O)c2ccccc2)OCCCC[C@@H](C)O3)cc1	0.2
CCCN(C)C[C@@H]1OCc2cn(nn2)CCCC(=O)N([C@@H](C)CO)C[C@@H]1C	-0.2
CNC[C@@H]1OCCCC[C@H](C)Oc2ccc(NC(=O)Nc3ccc(C(F)(F)F)cc3)cc2C(=O)N([C@@H](C)CO)C[C@@H]1C	-2.4
C[C@H](CO)N1C[C@H](C)[C@@H](CN(C)C(=O)Nc2ccc(C(F)(F)F)cc2)Oc2ccc(NC(=O)Nc3ccc4c(c3)OCO4)cc2CC1=O	0.9

In a second layout: entries from further up.
> C[C@H]1CN([C@@H](C)CO)C(=O)c2cccc(NC(=O)C3CCOCC3)c2O[C@@H]1CN(C)S(=O)(=O)c1cn(C)cn1
  A1 apoptosis 2: 0.5
> C[C@@H]1CCCCO[C@@H](CN(C)C(=O)C2CCCCC2)[C@@H](C)CN([C@H](C)CO)C(=O)c2cc(NS(=O)(=O)c3ccccc3)ccc2O1
  A1 apoptosis 2: 1.0

Exported bar-delimited: 6 of the compounds above
smiles | A1 apoptosis 2
C[C@@H]1CN([C@H](C)CO)C(=O)c2cc(NS(=O)(=O)c3ccc(Cl)cc3)ccc2O[C@@H](C)CCCCO[C@H]1CN(C)Cc1ccccc1 | -1.2
Cc1cc(C(=O)Nc2cccc3c2O[C@H](CN(C)CC2CC2)[C@H](C)CN([C@@H](C)CO)C3=O)n(C)n1 | 0.1
Cc1cc(C(=O)Nc2cccc3c2O[C@@H](CN(C)S(=O)(=O)c2ccc(Cl)cc2)[C@@H](C)CN([C@H](C)CO)C3=O)n(C)n1 | -0.2
C[C@@H]1CCCCO[C@@H](CN(C)S(=O)(=O)c2cccs2)[C@@H](C)CN([C@H](C)CO)C(=O)c2cc(NS(=O)(=O)c3cccs3)ccc2O1 | 0.8
COc1ccc(NC(=O)N(C)C[C@@H]2OCCCC[C@@H](C)Oc3ccc(NC(=O)Nc4cccc5ccccc45)cc3C(=O)N([C@H](C)CO)C[C@@H]2C)cc1 | 0.0
C[C@@H]1CN([C@H](C)CO)C(=O)c2cc(NC(=O)C3CCCCC3)ccc2O[C@@H]1CN(C)Cc1ccccc1 | -0.6

Additional results:
SMILES	A1 apoptosis 2
Cc1ccc(S(=O)(=O)Nc2ccc3c(c2)C(=O)N([C@H](C)CO)C[C@@H](C)[C@@H](CN(C)C(=O)Nc2c(C)noc2C)O3)cc1	-0.9
C[C@H](CO)N1C[C@H](C)[C@H](CN(C)S(=O)(=O)c2cn(C)cn2)Oc2c(NC(=O)NC3CCCCC3)cccc2C1=O	0.4
C[C@@H]1CCCCO[C@@H](CN(C)S(C)(=O)=O)[C@H](C)CN([C@H](C)CO)C(=O)c2cc(NC(=O)C3CCCCC3)ccc2O1	0.2
O=C1O[C@@H](c2ccccc2)[C@@H](c2ccccc2)N2[C@@H](c3ccccc3OCCO)[C@]3(C(=O)Nc4ccccc43)[C@@H](C(=O)O)[C@H]12	-0.7
C[C@@H]1CCCCO[C@@H](CN(C)S(=O)(=O)c2cn(C)cn2)[C@@H](C)CN([C@@H](C)CO)C(=O)c2cc(NC(=O)c3ccccc3)ccc2O1	0.2
C[C@@H]1CN([C@@H](C)CO)C(=O)c2cccc(NS(C)(=O)=O)c2O[C@@H]1CN(C)C(=O)Nc1cccc2ccccc12	1.0
C[C@H]1CN([C@@H](C)CO)C(=O)c2cccc(NS(=O)(=O)c3ccccc3)c2O[C@H]1CN(C)S(=O)(=O)c1ccccc1	-0.9
O=C(CCCCCCC(=O)Nc1ccccc1O)N/N=C/c1ccc(CO)o1	-0.3
O=S(=O)(N[C@@H]1CCCN(Cc2ccc(OCCO)cc2)C1)c1cc(Cl)ccc1Cl	-0.1
C[C@H]1CN([C@@H](C)CO)C(=O)c2cc(N(C)C)ccc2O[C@H]1CN(C)S(=O)(=O)c1ccc(F)cc1	0.3
C[C@H](CO)N1C[C@H](C)[C@@H](CN(C)Cc2ccccc2C(=O)O)OCc2cnnn2CCCC1=O	1.0
Cc1noc(C)c1NC(=O)Nc1ccc2c(c1)C(=O)N([C@H](C)CO)C[C@@H](C)[C@@H](CN(C)C(=O)NC(C)C)O2	-0.8
C[C@H]1CCCCO[C@H](CN(C)Cc2ccc(C(=O)O)cc2)[C@@H](C)CN([C@@H](C)CO)C(=O)c2cc(NC(=O)Nc3ccccc3)ccc2O1	-0.4
C[C@@H]1CCCCO[C@@H](CN(C)Cc2ccc3c(c2)OCO3)[C@@H](C)CN([C@@H](C)CO)C(=O)c2cc(NC(=O)CCCN(C)C)ccc2O1	-0.1
CNC[C@@H]1OCCCC[C@@H](C)Oc2ccc(NC(=O)NC(C)C)cc2C(=O)N([C@@H](C)CO)C[C@H]1C	0.8
Cc1ccc(S(=O)(=O)Nc2ccc3c(c2)CC(=O)N([C@H](C)CO)C[C@H](C)[C@@H](CN(C)Cc2ccc4c(c2)OCO4)O3)cc1	-0.4
COCCOC(=O)N1C(=O)[C@@]2(c3cc(C#CCC(C(=O)OC)C(=O)OC)ccc31)[C@H](C(=O)NC[C@H](O)c1ccccc1)[C@H]1C(=O)O[C@H](c3ccccc3)[C@H](c3ccccc3)N1[C@@H]2c1ccc(O)cc1	1.6
C[C@@H]1CN([C@@H](C)CO)C(=O)Cc2cc(NC(=O)C3CCCCC3)ccc2O[C@@H]1CN(C)Cc1ccncc1	-1.7
CCOC(=O)C1=CC[C@@H](c2ccc(OC)cc2)[C@@H]1C(=O)c1ccccc1	0.3
C[C@H](CO)N1C[C@H](C)[C@@H](CN(C)C(=O)C2CCCCC2)OCCCC[C@H](C)Oc2ccc(N(C)C)cc2C1=O	0.8
C[C@H](CO)N1C[C@H](C)[C@H](CN(C)Cc2ccc(C(=O)O)cc2)Oc2ccc(NC(=O)Nc3ccc(F)cc3)cc2C1=O	-0.8
C[C@@H]1CN([C@H](C)CO)C(=O)c2cccc(NC(=O)c3ccncc3)c2O[C@H]1CN(C)Cc1ccc(C(=O)O)cc1	-0.9
C[C@H](CO)N1C[C@H](C)[C@@H](CN(C)Cc2cccc3c2OCCCO3)OCc2cn(nn2)CCCC1=O	0.3
C[C@@H]1CN([C@@H](C)CO)C(=O)c2cccc(NC(=O)Nc3ccc4c(c3)OCO4)c2O[C@@H]1CN(C)C(=O)NC1CCCCC1	0.3
C[C@H](CO)N1C[C@H](C)[C@H](CN(C)Cc2ccc(C(=O)O)cc2)Oc2ccc(NC(=O)CCN3CCOCC3)cc2C1=O	0.3
SMILES	A1 apoptosis 2
C[C@@H]1CN([C@@H](C)CO)C(=O)Cc2cc(NC(=O)Cn3cnnn3)ccc2O[C@H]1CN(C)Cc1ccc(C(=O)Nc2ccccc2N)cc1	-1.3
C[C@@H]1CCCCO[C@H](CN(C)C(=O)c2ccncc2)[C@H](C)CN([C@@H](C)CO)C(=O)c2cc(NS(=O)(=O)c3ccccc3)ccc2O1	0.1
Cc1noc(C)c1S(=O)(=O)Nc1ccc2c(c1)CC(=O)N([C@H](C)CO)C[C@H](C)[C@H](CN(C)S(=O)(=O)c1cn(C)cn1)O2	-0.6
C[C@@H]1CN([C@H](C)CO)C(=O)Cc2cc(NS(=O)(=O)c3ccccc3)ccc2O[C@H]1CN(C)C(=O)Nc1ccccc1	0.4
COc1ccc(S(=O)(=O)Nc2ccc3c(c2)CC(=O)N([C@@H](C)CO)C[C@@H](C)[C@@H](CN(C)Cc2ccc(C(F)(F)F)cc2)O3)cc1	-1.1
C[C@@H]1CN([C@H](C)CO)C(=O)c2cccc(NC(=O)NC3CCCCC3)c2O[C@H]1CN(C)Cc1ccc(Cl)c(Cl)c1	-1.3
C[C@H]1CN([C@@H](C)CO)C(=O)Cc2cc(NS(C)(=O)=O)ccc2O[C@H]1CN(C)C(=O)Nc1ccccc1	1.5
Cc1ccc(S(=O)(=O)Nc2ccc3c(c2)C(=O)N([C@H](C)CO)C[C@H](C)[C@@H](CN(C)CC2CCCCC2)OCCCC[C@@H](C)O3)cc1	0.2
C[C@@H]1CN([C@@H](C)CO)C(=O)c2cc(NS(=O)(=O)c3cccs3)ccc2O[C@@H](C)CCCCO[C@@H]1CN(C)Cc1ccccc1	1.5
Cc1ccc(S(=O)(=O)N(C)C[C@H]2Oc3ccc(NC(=O)Cc4ccccc4)cc3CC(=O)N([C@@H](C)CO)C[C@@H]2C)cc1	-0.6
CC(C)NC(=O)Nc1ccc2c(c1)C(=O)N([C@@H](C)CO)C[C@@H](C)[C@@H](CN(C)C(=O)Nc1cccc3ccccc13)OCCCC[C@@H](C)O2	0.5
C[C@@H]1CCCCO[C@H](CN(C)Cc2ccc(C(F)(F)F)cc2)[C@H](C)CN([C@H](C)CO)C(=O)c2cc(NS(=O)(=O)c3cn(C)cn3)ccc2O1	-0.1
C[C@H]1CN([C@@H](C)CO)C(=O)Cc2cc(NC(=O)Nc3cccc4ccccc34)ccc2O[C@@H]1CN(C)Cc1ccc(Oc2ccccc2)cc1	1.4
CC(C)NC(=O)N(C)C[C@H]1Oc2ccc(NC(=O)Nc3ccc4c(c3)OCO4)cc2C(=O)N([C@@H](C)CO)C[C@@H]1C	0.8
C[C@H](CO)N1C[C@H](C)[C@@H](CN(C)Cc2ccncc2)OCCCC[C@H](C)Oc2ccc(NC(=O)Cc3ccccc3)cc2C1=O	0.8
C[C@@H]1CCCCO[C@H](CN(C)C(=O)C2CCCCC2)[C@@H](C)CN([C@H](C)CO)C(=O)c2cc(NC(=O)c3ccncc3)ccc2O1	-0.5
C[C@H]1CCCCO[C@H](CN(C)C(=O)Nc2cccc3ccccc23)[C@@H](C)CN([C@@H](C)CO)C(=O)c2cc(NC(=O)C3CCCCC3)ccc2O1	0.7
C[C@H]1CN([C@@H](C)CO)C(=O)c2cc(NC(=O)Nc3cccc4ccccc34)ccc2O[C@H]1CN(C)S(C)(=O)=O	0.6
C[C@H](CO)N1C[C@H](C)[C@H](CN(C)Cc2ccncc2)Oc2ccc(NC(=O)C3CCCCC3)cc2C1=O	0.6
COc1ccc(CN(C)C[C@H]2Oc3ccc(NS(=O)(=O)c4ccc(C)cc4)cc3CC(=O)N([C@H](C)CO)C[C@@H]2C)cc1	-1.2

These rows are one share of the data, so the mix of outcomes need not match the whole.
